VDR inh – inhibitors of human vitamin D receptor; P11473; VDR-SRC2-3 peptide fluorescence polarization, 2 h; Potency, µM, for the others: max response, negative = inhibition, most hits filed as inhibitors; 400,000 compounds, 0.93% hits; AID 504847; active means well fitted inhibition curve with a large enough effect; inconclusive means small, poorly fitted or top-dose-only effect, or another doubt; inactive means no such curve, though single readings can be large or run the other way; further: series mostly up to about 120 µM
Target sequence (P11473 whole entry, looked up): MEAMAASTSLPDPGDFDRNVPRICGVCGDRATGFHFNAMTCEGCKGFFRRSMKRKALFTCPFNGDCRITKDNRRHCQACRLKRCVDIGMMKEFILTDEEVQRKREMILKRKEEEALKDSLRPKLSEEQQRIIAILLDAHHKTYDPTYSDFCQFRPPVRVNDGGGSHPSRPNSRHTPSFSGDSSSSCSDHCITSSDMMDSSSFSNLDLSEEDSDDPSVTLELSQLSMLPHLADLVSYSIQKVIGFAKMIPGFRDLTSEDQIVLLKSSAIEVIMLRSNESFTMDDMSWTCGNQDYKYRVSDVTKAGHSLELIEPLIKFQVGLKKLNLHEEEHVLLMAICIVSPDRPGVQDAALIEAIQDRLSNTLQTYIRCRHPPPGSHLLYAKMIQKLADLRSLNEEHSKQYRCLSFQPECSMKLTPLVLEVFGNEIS
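FP read-out; VDR + SRC2-3 coactivator peptide; 23 nl compound by pintool; 2 h RT incubation; reagents held at 4 deg C, protected from light.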
Starred values were filed as active, the others as inactive; ? = inconclusive; & = joins results of further samples. On the % scale 0 is the no-effect control and ±100 the full control effect; potency means the concentration at half of the fitted maximal effect. An excerpt, so the mix of outcomes need not match the whole.

SMILES	VDR inh
Cc1ccc(N(C(=O)C(F)(F)F)C(C(=O)NC2CCCCC2)c2ccncc2)cc1C (stereo not drawn)	?
CC(=O)Nc1ccc2ccc3cccc4ccc1c2c34	-11.1%
COc1ccc2c(c1OC)C(=O)OC2Nn1cncn1 (stereo not drawn)	18.8%
CC(=O)Nc1ccc(S(=O)(=O)NC(CC(=O)NCCc2ccccc2)C(C)C)cc1 (stereo not drawn)	-0.5%
CCOC(=O)N1CCN(c2c(NCCCN(CC)Cc3ccccc3)c(=O)c2=O)CC1	10.2%
CCn1cc(C(=O)NCc2ccccc2Cl)c(=O)c2cc(S(=O)(=O)N3CCc4ccccc4C3)ccc21	-6.3%
Cc1ccc(Cn2c(SCC(=O)C(C)(C)C)nc3ccsc3c2=O)cc1	1.8%
CCOC(=O)Cn1cc([N+](=O)[O-])c(OC)n1	-2.3%
CCC(c1nnnn1Cc1cccs1)N1CCN(C(=O)c2ccco2)CC1 (stereo not drawn)	-23.0%
Cc1cc(Cn2ccnc2)c(C)c([N+](=O)[O-])c1Cn1ccnc1	12.6%
O=C(CN1CCN(Cc2ccccc2)CC1)N1CCN(c2ccccc2)CC1	6.0%
CCOC(=O)Cc1nc2cc(Cl)ccc2o1	-11.5%
CCN(CC)S(=O)(=O)c1ccc(/C(O)=C2/C(=O)C(=O)N(CCOC)C2c2ccccc2)cc1 (stereo not drawn)	3.3%
C=CCNC(=S)Nc1ccc(C)cc1[N+](=O)[O-]	-2.2%
CC(=O)c1cccc(NC(=O)c2ccc(OCc3c(C)noc3C)cc2)c1	2.1%
CC1CC(C)CN(CCCSc2ccccc2)C1 (stereo not drawn)	11.6%
O=C(Nc1ccccc1F)Nc1cccnc1Cl	-16.4%
Cc1ccc(CNC(=O)COC(=O)c2cnc(C)cn2)cc1	1.7%
Cn1cc(/C=C2\SC(=S)N(NC(=O)c3cccc(Cl)c3)C2=O)c2ccccc21	-2.9%
COC(=O)c1cc(CN2C(=O)c3ccccc3C2=O)c(O)c([N+](=O)[O-])c1	-7.2%
Cc1cccc(C)c1OCCOCCN1CCN(C)CC1	2.6%&-10.5%
CCOC(=O)C1CCN(C(=O)CCCNC(=O)Cn2cnc3sc(C)c(C)c3c2=O)CC1	-26.0%
COc1c2occc2c(OC)c2c(=O)cc(C)oc12	-3.6%&0.7%
CCOC(=O)c1c(C)[nH]c(C)c1S(=O)(=O)NCCc1ccco1	-7.5%
Cc1csc(Sc2ccc(C(=O)OCC(=O)Nc3ccc(F)cc3[N+](=O)[O-])cc2[N+](=O)[O-])n1	-19.0%
CCCN1Cc2cccc(C(=O)NCc3ccccc3)c2C1=O	17.1%
CCO/C=C1/C(=O)N(Cc2ccccc2)C(=O)c2ccccc21	-31.7%
CC(=O)Oc1ccc2nc(CN3C(=O)c4ccc([N+](=O)[O-])cc4C3=O)oc(=O)c2c1	-4.7%
CCCCCc1nnc(NC(=O)Cc2cccs2)s1	19.8%
COc1ccc(OC)c(/C=C(/C#N)c2nc(-c3ccc(-c4ccccc4)cc3)cs2)c1	-3.5%
CCc1noc(C)c1C(=O)N1CCCC1	-10.8%
COc1ccc(-c2ccc(=O)n(Cc3c(F)cccc3Cl)n2)cc1	-23.2%
CCc1sc(C(=O)Nc2ccc(OC)c(S(=O)(=O)N3CCOCC3)c2)cc1C	-4.3%
CCc1cccc(NC(=O)CCc2c(C)nc3c(-c4ccccc4)c(C)nn3c2C)c1	0.2%
CC1CCCC(C)N1C(=O)COC(=O)c1ccc(Br)c(S(=O)(=O)N2CCOCC2)c1 (stereo not drawn)	-23.0%
O=C(Cc1ccccc1)c1ccc(N2CCOCC2)cc1	-16.0%
NCCCC[C@H](NC(=O)C1CCNCC1)c1nnc([C@@H](N)Cc2ccc(O)cc2)o1	16.1%
COc1cccc(C(=O)Cn2c(=N)n(C)c3ccccc32)c1	12.9%
O=C(Nc1ccc(N2C(=O)C3C4C=CC(C4)C3C2=O)cc1)Nc1nnc(C(F)(F)F)s1 (stereo not drawn)	-11.8%
COc1ccccc1-n1cnnc1SCC(=O)Nc1ccccc1	0.3%

A draw from above in order of SMILES length, descending.
SMILES	VDR inh
CC(=O)Oc1ccc2nc(CN3C(=O)c4ccc([N+](=O)[O-])cc4C3=O)oc(=O)c2c1	-4.7%
O=C(Nc1ccc(N2C(=O)C3C4C=CC(C4)C3C2=O)cc1)Nc1nnc(C(F)(F)F)s1 (stereo not drawn)	-11.8%
NCCCC[C@H](NC(=O)C1CCNCC1)c1nnc([C@@H](N)Cc2ccc(O)cc2)o1	16.1%
CC1CCCC(C)N1C(=O)COC(=O)c1ccc(Br)c(S(=O)(=O)N2CCOCC2)c1 (stereo not drawn)	-23.0%
CCOC(=O)C1CCN(C(=O)CCCNC(=O)Cn2cnc3sc(C)c(C)c3c2=O)CC1	-26.0%
CCc1cccc(NC(=O)CCc2c(C)nc3c(-c4ccccc4)c(C)nn3c2C)c1	0.2%
CCc1sc(C(=O)Nc2ccc(OC)c(S(=O)(=O)N3CCOCC3)c2)cc1C	-4.3%
CCOC(=O)c1c(C)[nH]c(C)c1S(=O)(=O)NCCc1ccco1	-7.5%
COc1ccc(-c2ccc(=O)n(Cc3c(F)cccc3Cl)n2)cc1	-23.2%
CCO/C=C1/C(=O)N(Cc2ccccc2)C(=O)c2ccccc21	-31.7%
COc1cccc(C(=O)Cn2c(=N)n(C)c3ccccc32)c1	12.9%
COc1ccccc1-n1cnnc1SCC(=O)Nc1ccccc1	0.3%
COc1c2occc2c(OC)c2c(=O)cc(C)oc12	-3.6%&0.7%
Cc1cccc(C)c1OCCOCCN1CCN(C)CC1	2.6%&-10.5%
CCCCCc1nnc(NC(=O)Cc2cccs2)s1	19.8%

Following part.
SMILES	VDR inh
CC(=O)Oc1ccc(C2=NN(c3ccccc3)C(c3ccccc3)C2)cc1 (stereo not drawn)	-18.7%
COC(=O)c1sc(NC(=O)c2cc3nc(-c4ccc(Br)cc4)cc(C(F)(F)F)n3n2)c(C(=O)OC)c1C	0.4%
O=C(O)c1ccccc1OP(=O)(O)O	-1.4%&1.8%
CCc1cccc(C)c1N(C(=O)Cn1c(COC)nc2ccccc21)C(C)COC (stereo not drawn)	-29.6%
Cc1oc2ncnc(N3CCOCC3)c2c1C(=O)N(Cc1ccccc1)C(C)C	-5.5%
CCc1c(C)nc2ncnn2c1NCCc1ccccc1	-3.6%
O=C(N/N=C1\CCCc2ccccc21)c1cccc(Br)c1	-8.7%
COc1ccc(CC2c3cc(OC)c(OC)cc3CC[N+]2(C)CCC(=O)OCCCCCOC(=O)CC[N+]2(C)CCc3cc(OC)c(OC)cc3C2Cc2ccc(OC)c(OC)c2)cc1OC (stereo not drawn)	2.7%
O=C(Cc1ccccc1)NCCS(=O)(=O)N1CCN(c2ccccc2)CC1	-1.3%
CC(C)=CCN1CCN(Cc2cc3ccccc3[nH]2)CC1CCO (stereo not drawn)	-0.1%
CC(=O)Nc1ccc(NC(=O)C2CC(=O)N(c3cccc(C)c3C)C2)cc1 (stereo not drawn)	1.8%
OCCCNC(=S)Nc1ccc(Br)cc1Cl	-12.1%
O=C(CN1CCN(c2ccccn2)CC1)Nc1ccc(F)cc1F	-7.2%
COc1cccc(S(=O)(=O)Nc2ccc(C(=O)NCc3ccco3)cc2)c1	6.2%
O=C1c2cccnc2C(=O)N1Cc1ccc(S(=O)(=O)NCc2ccco2)cc1	6.7%
O=C(Cc1ccccc1)NNC(=O)c1cnccn1	-1.0%
CCN(Cc1ccccc1)C(=O)c1cnn(-c2ccc(F)cc2)c1-n1cccc1	3.6%
Cc1csc(NC(=O)CSc2[nH]c(=O)ncc2C)n1	-8.3%
CCOc1ccc(CNS(=O)(=O)c2cc(-c3cc(C)no3)ccc2C)cc1OC	16.5%
Cc1ccc(C(=O)NC(=S)N(C)Cc2ccccc2)cc1	-10.7%
Cc1cc(C)cc(NC(=O)CSCc2cc(=O)c3cc(Cl)ccc3[nH]2)c1	11.8%
COc1cccc(CNC(=O)CCNC(=O)C2CCN(S(=O)(=O)c3ccccc3)CC2)c1	-13.0%
CN(C)S(=O)(=O)c1ccc(S(=O)(=O)Nc2ccc3c(c2)oc2ccccc23)cc1	6.9%
COCCCNC(=O)CSc1nc2cc(S(=O)(=O)N3CCCCC3)ccc2o1	-14.4%
COc1ccc(Cn2c(-c3ccc(OC)c(O)c3)nc3ccccc32)cc1O	-11.0%
Cc1c2ccccc2nc2c(F)c(NCCO)c(F)c(F)c12	?
Cc1cc(NC(=O)CSc2n[nH]c(N)n2)no1	8.8%
Cc1n[nH]c(=O)nc1NC1CCCCC1	0.7%
Cc1ccccc1Nc1nc(N)nc(COC(=O)c2ccco2)n1	-7.6%
CSCCC(=O)Nc1nc(-c2ccccn2)cs1	?
Cc1cc2n(n1)CCCN2C(=O)Nc1ccc(Cl)cc1	10.6%
NC(=O)c1ccc(SCC(=O)OCC(=O)N2CCCC2=O)c([N+](=O)[O-])c1	-3.8%
FC(F)Sc1ccc(NC(=S)NC(c2ccccc2)c2ccccc2)cc1	2.0%
Cc1cn(S(=O)(=O)c2ccc(F)c(Cl)c2)cn1	-0.2%
Cc1cccc(C)c1NC(=O)CNC(=O)CCCN1C(=O)c2cccc3cccc(c23)C1=O	27.5%
CCOC(=O)c1cccc(NS(=O)(=O)c2cc3[nH]c(=O)c(=O)[nH]c3cc2C)c1	1.1%
Cc1ccc(N(Cc2cccs2)C(=O)c2ccco2)cc1	6.5%
Cc1ccccc1OCC(=O)Nc1ccc2nc(SCC(N)=O)sc2c1	3.0%
Cc1ccc(C2Nc3ccccc3-c3nc4ccccc4n32)o1 (stereo not drawn)	12.0%
CCOC(=O)C1CCN(C(=O)CSc2ccccc2Cl)CC1	-8.0%
Nc1cc2c([N+](=O)[O-])cccc2o1	-8.8%
O=C(COc1ccc2ccc(=O)oc2c1)NC(Cc1ccc(Cl)cc1)C(=O)O (stereo not drawn)	?
c1ccc(CCn2c(C3CC3)nc3ccccc32)cc1	1.1%
Cc1cccc(S(=O)(=O)c2c(C)cc(C)[nH]c2=O)c1	-5.3%
CNc1nc(CCN2C(=O)c3ccccc3C2=O)cs1	5.6%
COc1ccc(C(C)=O)cc1COC(=O)c1ccc2c(c1)OCCO2	-6.5%
Cc1ccc(SCC(CC(C)C)N2CCN(CCc3ccccc3)CCC2=O)cc1 (stereo not drawn)	-4.7%
CCCc1c(C)c2cccc(C)c2[nH]c1=O	3.4%
CC(C)c1onc(C(=O)Nc2sc3c(c2C#N)CCC3)c1[N+](=O)[O-]	1.8%
Cc1cccc(NC(=O)c2cnc3ccccn3c2=O)c1	1.3%
CCC1CCCCN1CCCNC(=O)c1c(O)nc2ccccn2c1=O (stereo not drawn)	-3.3%&-2.2%
C#CCSc1nncn1C(=O)/C=C/c1ccccc1	?
CC1CCc2nc3ccc(S(=O)(=O)N4CCC(C(=O)N5CCCCC5)CC4)cc3c(C(=O)O)c2C1 (stereo not drawn)	-2.7%
COc1ccc(CN(C(=O)c2ccco2)C2CCS(=O)(=O)C2)cc1 (stereo not drawn)	-1.8%
Cc1c(NC(=S)NC(=O)c2ccccc2Br)c(=O)n(-c2ccccc2)n1C	-24.2%
O=c1[nH]c2cc([N+](=O)[O-])ccc2c2ccc([N+](=O)[O-])cc12	2.9%
CCOCCNC(=O)c1ccccc1C(=O)NCCOCC	2.7%
CC1CN(CCN2CC(C)N(C=O)CC2C)C(C)CN1C=O (stereo not drawn)	4.9%
CCC1=NN(C(=O)COc2ccccc2C)C(O)(c2ccncc2)C1 (stereo not drawn)	-7.1%
COc1cccc(CN(C)C(=O)c2cccc(S(=O)(=O)N3CCN(Cc4ccccc4)CC3)c2)c1OC	0.7%

Other compounds.
SMILES	VDR inh
O=C(c1ccc([N+](=O)[O-])s1)N1CCN(c2ccccc2)CC1	1.0%
COC(=O)c1ccc(C)c(-n2c(C)cc(C=O)c2C)c1	7.9%
Cc1cc(C)c(NC(=O)CN(C2CCCCC2)C2CCCCC2)c(C)c1	1.8%
Cc1[nH]n(-c2ccccc2)c(=O)c1C(c1ccccc1C(=O)O)c1c(C)[nH]n(-c2ccccc2)c1=O	-2.9%
CCCCCCCCCCCCCCCC(=O)C(F)(F)F	9.9%
Cc1cc(C(=O)OCC(=O)Nc2ccccc2C)c(C)o1	2.3%
CC(=O)Nc1nc2ccccc2n1Cc1ccc(C)cc1	7.5%
CC(=O)Nc1ccc(Oc2nc(C(F)(F)F)nc3ccccc23)cc1	-11.3%
CC(CCNC(=O)c1ccccc1)(CCNC(=O)c1ccccc1)[N+](=O)[O-]	-17.2%
CN1CCC(OC(=O)COc2ccc(Br)cc2)CC1	9.6%
COC(c1ccccc1)c1nnc(CCC(=O)NCCCc2ccccc2)o1 (stereo not drawn)	-9.3%
C=CC(=O)NCc1ccc(-c2csnn2)cc1	-3.0%
Brc1cccc(-c2nnc(-c3ccccc3)o2)c1	6.9%
Cc1nc(N2CCOCC2)c(C#N)c2c1COC(C)(C)C2	15.7%
Cc1cc(F)ccc1NCc1cc2c(cc1[N+](=O)[O-])OCO2	1.1%
O=C(NCc1ccccc1Cl)c1cc2ccccc2o1	-1.2%
O=C(Nc1ccc(Br)cc1)C1Cc2ccccc2O/C1=N\O (stereo not drawn)	12.5%
Cc1ccc(-c2cc(C(=O)NCc3cnn(C)c3)c3cc(Br)ccc3n2)cc1	-4.1%&-18.2%
CCOc1ccc(NCC(=O)Nc2ccc(Cl)cc2C)cc1	-16.5%
CCn1c(C)nc2cc(S(=O)(=O)N3CCCCC3)ccc21	2.9%
Cc1c(NC(=O)CSCc2ccco2)c(=O)n(-c2ccccc2)n1C	10.5%
COc1cc2c(cc1OC)OC(C)(C)C=C2	-6.3%
O=C(NCc1ccc(F)cc1)c1cnc(Cl)c(Cl)c1	-16.8%
C/C(=N\Nc1ccc(C(=O)O)cc1)c1ccc(Br)cc1	-17.9%
Cc1ccc2nc(SCC(=O)c3ccc(O)cc3O)[nH]c2c1	-8.9%
NC(=O)c1ccsc1NC(=O)c1ccco1	3.8%
COc1ccc(CNC(=O)Cn2c(=O)nc(-c3ccccc3F)c3cc(Cl)ccc32)cc1OC	-4.2%
Cc1c(Cl)c([N+](=O)[O-])nn1CCCC(=O)O	-16.0%

Compound activity deposited in PubChem by National Center for Advancing Translational Sciences (NCATS).
